Bioassay records as filed in PubChem.
CSC inhib: cancer stem cell inhibition; cancer stem cell-like cells viability, luminescence; AID 2717; 1.1% of 300,000 active; inhibition, % at 7.5 µM;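 active = mean at 75% or more and at least half the replicates too; tested in HMLE shEcad cells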;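 also: 0% = median of negative and 100% = median of positive control wells; the first replicate is given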
eIF4H inh: inhibitors of RNA binding by human eIF4H; Q15056; eIF4H fluorescence polarization binding assay; inhibition, % at 35 µM; 0.94% of 290,000 active;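 active = 50% or more with normal probe brightness, or confirmed in later tests; about a fifth of its hits are not listed in these tables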;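 also: calls also rest on retests at 20 µM and on dose response follow-up; 0% = protein and probe with vehicle and 100% = probe without protein; strong numbers were not always called active; many hits fall short of the cut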
Env fusion inh: inhibitors of HIV Env-mediated cell fusion; HeLa-JRFL Env/CEM21 cell fusion, luciferase; inhibition, % at 12.3 µM; 1.1% of 360,000 active;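 active = mean replicate inhibition score of at least 50 and every replicate individually at or above 50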;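 also: 0% = plate neutral controls and 100% = maraviroc near 300 nM; one replicate is shown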
MT1-MMP act inh: blocks activation of human MT1-MMP; P50281; HT1080 RFP-PRO-GFP cells, GFP/RFP ratio fluorescence, overnight; percent of plate control window, DMSO zero; GFP/RFP ratio change, % at 20 µM; 0.061% of 360,000 active;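 active = GFP/RFP ratio change of at least 30% with cell ATP level not reduced by more than half and red fluorescence within 50% of control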; also: strong numbers were not always called active
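Assay system: RFP-PRO-GFP reporter HT1080 cells; read-out basis: GFP/RFP fluorescence ratio; benchmarks: DMSO wells and RFP-L50D-GFP cells; doses: 20 µM single dose, 1% DMSO; schedule: overnight cell settling, then overnight compound exposure, 37 °C, 5% CO2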
PABP polyA inh: PABP-poly(A) binding inhibition | P11940 | PABP-poly(A) RNA binding, fluorescence polarization | inhibition, % at 35 µM | 1% of 290,000 active | AID 2014;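 active = 50% or more with normal probe brightness, or confirmed in later tests; about a fifth of its hits are not listed in these tables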;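 also: calls also rest on retests at 20 µM and on dose response follow-up; controls were probe without protein and protein plus probe with vehicle; some compounds called inactive have numbers as strong as hits; many hits fall short of the cut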
Target sequence (P11940 whole entry, looked up): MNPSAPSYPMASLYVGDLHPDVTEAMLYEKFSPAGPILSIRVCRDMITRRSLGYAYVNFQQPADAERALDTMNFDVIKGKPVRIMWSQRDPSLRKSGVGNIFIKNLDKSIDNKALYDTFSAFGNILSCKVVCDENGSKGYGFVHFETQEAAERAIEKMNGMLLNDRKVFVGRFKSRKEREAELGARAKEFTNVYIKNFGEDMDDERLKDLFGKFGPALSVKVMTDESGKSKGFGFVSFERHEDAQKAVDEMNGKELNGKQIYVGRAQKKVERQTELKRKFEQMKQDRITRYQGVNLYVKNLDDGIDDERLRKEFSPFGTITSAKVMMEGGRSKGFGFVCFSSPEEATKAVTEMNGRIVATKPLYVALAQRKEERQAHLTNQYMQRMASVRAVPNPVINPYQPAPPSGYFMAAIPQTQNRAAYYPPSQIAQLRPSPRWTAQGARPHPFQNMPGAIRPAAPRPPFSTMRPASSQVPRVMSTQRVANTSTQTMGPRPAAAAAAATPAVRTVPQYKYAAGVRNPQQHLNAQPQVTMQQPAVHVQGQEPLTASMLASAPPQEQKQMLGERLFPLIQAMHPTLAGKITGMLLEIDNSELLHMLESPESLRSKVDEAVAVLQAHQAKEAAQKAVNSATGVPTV
UUG fidelity: alters start codon recognition fidelity in yeast. S. cerevisiae UUG-firefly luciferase reporter, luminescence/redox ratio. activity score, % at 18.7 µM. 0.13% of 350,000 active;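 active = replicate mean at a twofold rise or more, about +100% in these data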;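 also: firefly luciferase made from a UUG start codon reports start codon fidelity; reporter light over untreated wells divided by growth signal over untreated wells; some hits fall short of that in this replicate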
Rce1 inh: inhibitors of yeast Ras-converting enzyme. AID 2563. yeast membranes, quenched prenylated peptide cleavage fluorescence. 0.27% of 290,000 active. calls only;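 active = fall in fluorescence gain of 50% or more versus controls, with final raw signal at or below 3038400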;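 also: plate controls were neutral control wells for no effect and wells lacking membranes for full effect; tested at 10 µM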
Target sequence (Q03530 whole entry, looked up): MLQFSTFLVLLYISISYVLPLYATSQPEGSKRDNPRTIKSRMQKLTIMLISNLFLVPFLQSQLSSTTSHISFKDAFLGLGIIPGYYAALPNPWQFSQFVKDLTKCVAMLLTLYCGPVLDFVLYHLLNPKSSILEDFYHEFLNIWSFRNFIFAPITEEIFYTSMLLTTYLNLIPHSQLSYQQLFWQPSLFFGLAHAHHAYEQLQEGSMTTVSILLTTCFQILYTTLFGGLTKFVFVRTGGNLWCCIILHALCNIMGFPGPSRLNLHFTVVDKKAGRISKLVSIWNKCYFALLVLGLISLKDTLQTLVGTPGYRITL
eIF4H inh retest: recorded beside eIF4H inh, whose call it bears; inhibition, %; compound at 20 µM; confirmation average;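 mean of two retest wells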
PABP polyA inh retest: further read-out of PABP polyA inh, marked with its call; inhibition, %; compound at 20 µM; confirmation repeats;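 mean of two retest wells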
MT1-MMP act inh RFP: second read-out of MT1-MMP act inh, no call of its own (marks repeat the call); RFP signal change, %; measured here: RFP expression control read;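 0 = vehicle wells; hits needed this value within 50% of zero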
Active calls of the source: *; i = inactive; / = not tested or not shown. This is a subset (hit frequency here may not be typical).

SMILES	CSC inhib	eIF4H inh	Env fusion inh	MT1-MMP act inh	MT1-MMP act inh RFP	PABP polyA inh	UUG fidelity	Rce1 inh	others
CC(=O)N1N=C(c2ccccc2)CC1c1cn(C)c2ccccc12 (centres undefined)	-2.7	3.3	-17.3	-0.1	-4.8	7.0	-8.6	i
CC1(C)C2CCC1(C)C(OCC[N+](C)(C)CC(=O)OC1CCCCC1)C2 (centres undefined)	24.6	-4.5	74.2*	-21.7	-14.4	-3.2	1.2	i
C=CCOc1ccc2oc(=O)cc(C)c2c1	-12.5	-8.5	-230.6	-2.2	-1.9	5.3	-4.7	i
CN(Cc1ccccn1)Cc1nc(Cc2ccccc2Cl)no1	-15.8	-3.9	-21.1	8.1	5.0	-11.0	/	i
CCOCc1c(C(=O)NC2CCCCCC2)oc2ccccc12	26.2	-3.6	4.1	2.8	0.2	7.9	/	i
CCc1ccc(OCC(=O)Nc2ccc3c(c2)OCCO3)cc1	-2.2	-2.8	-11.3	-0.8	0.8	3.3	0.6	i
CC(NCC(=O)Nc1cc(Cl)cc(Cl)c1)c1ccccc1 (centres undefined)	4.5	-1.9	18.3	3.5	1.1	8.6	-1.3	i
COc1ccc(C(=O)Cc2cc(OC)c(OC)cc2[N+](=O)[O-])c(OC)c1	6.8	-1.4	/	4.4	-4.3	5.2	-18.4	i
CCOC(=O)CC1C(=O)NCCN1C(=S)NC(=O)c1ccc(C)c(Br)c1 (centres undefined)	/	/	24.3	0.2	3.1	/	-7.2	/
Nc1nonc1-n1nnc(C(=O)N/N=C/c2ccco2)c1-c1ccccc1	-19.9	-11.2	-4.1	-0.9	1.7	3.3	-21.8	i
CC(=O)NC(Cc1c[nH]c2ccccc12)C(=O)NCCc1ccccc1 (centres undefined)	-13.9	6.0	8.5	-2.0	1.9	10.0	-8.7	i
O=C(CCCC(=O)OCC(F)(F)C(F)F)Nc1ccc(NC(=O)CCCC(=O)OCC(F)(F)C(F)F)cc1	-6.8	-4.5	/	2.2	4.2	6.4	-7.4	i
Cc1ccccc1NCc1nnc2n1CCCCC2	-23.4	-2.8	-8.4	-2.4	1.4	7.5	/	i
COc1cccc(/C=C/C(=O)OCC(=O)Nc2cccc(S(=O)(=O)N(C)C)c2)c1	-6.2	1.4	-6.4	5.4	0.4	11.7	-7.5	i
COc1cc(/C=C(\C#N)C(=O)Nc2cccc(C(=O)O)c2)ccc1OCc1ccc(F)cc1	-7.5	-0.1	-47.2	-13.7	-7.6	7.6	-18.1	i
Nc1nnnn1/N=C/c1cccs1	8.3	11.4	/	-1.8	3.1	-3.1	-11.2	i
CCN1CCN(c2ccc(S(=O)(=O)N3CCOCC3)cc2NC(=O)C(C)Oc2cccc(Cl)c2)CC1 (centres undefined)	-10.4	/	-18.5	0.7	-0.9	/	32.9	i
COc1cc(CNCCc2ccc(S(N)(=O)=O)cc2)ccc1OCC(=O)N1CCCCC1	/	-8.6	-30.4	-2.0	1.6	-1.3	-9.6	i
CCc1cc(C(=O)Nc2ccc(OC)nc2)sc1C	-6.2	/	-37.0	-8.8	0.5	/	-6.4	i
N#C/C(=C\c1ccc(C(=O)O)cc1)c1ccccn1	-1.1	64.2*	10.5	-3.0	-2.9	0.6*	/	i	eIF4H inh retest=107.0*;PABP polyA inh retest=100.9*
c1csc(-c2csc3nc(CN4CCOCC4)nc(NCc4ccc5c(c4)OCO5)c23)c1	37.9	-9.1	-6.1	-11.8	-14.6	-2.6	/	i
Cc1cc2sc3nc(=O)n(-c4ccccc4)c(=O)n3c2cc1C	-1.3	-11.9	-50.7	0.8	-1.6	-5.7	/	i
COc1ccc(C(=O)NNC(=O)C(=O)NC2CCCCC2)cc1	-1.7	2.5	2.0	2.4	4.6	6.3	-20.9	i
CNC(=O)C(=O)Nc1c(C)cc(C)cc1C	-9.4	-2.0	-5.9	-0.4	2.9	8.3	/	i
CC(C)(C)OC(=O)NCCCCCC(=O)N/N=C/c1coc2ccccc2c1=O	-3.2	-3.1	-3.9	-9.3	-2.5	0.3	/	i
CN(C)CCCN(C(=O)c1ccc(S(=O)(=O)N2CCc3ccccc32)cc1)c1nc2c(Cl)cccc2s1	49.8	6.7	-7.0	1.9	3.0	-10.1	16.5	i
CC(=O)Nc1ccc(S(=O)(=O)NNC(=O)c2ccc(C)cc2)cc1	-2.7	-1.5	/	-1.6	0.5	-11.4	-13.9	i
CC(C)[C@H](NC(=O)N1CCn2c1nc1ccccc12)C(=O)NCCc1ccccc1	14.8	-6.8	2.7	1.1	0.5	-13.3	/	i
Cc1nn(Cc2ccccc2Cl)c(C)c1NC(=O)Cn1nc([N+](=O)[O-])c(Cl)c1C	-8.5	5.8	/	-2.8	1.1	-5.3	-8.7	i
CCc1cc2cc(C)c(C)cc2nc1SCC(=O)NNC(=O)c1ccco1	5.1	7.2	/	3.7	-3.7	1.1	/	i

Ordered by formula weight (low to high): five of the compounds above.
SMILES	CSC inhib	eIF4H inh	Env fusion inh	MT1-MMP act inh	MT1-MMP act inh RFP	PABP polyA inh	UUG fidelity	Rce1 inh	others
Cc1cc2sc3nc(=O)n(-c4ccccc4)c(=O)n3c2cc1C	-1.3	-11.9	-50.7	0.8	-1.6	-5.7	/	i
CC(=O)Nc1ccc(S(=O)(=O)NNC(=O)c2ccc(C)cc2)cc1	-2.7	-1.5	/	-1.6	0.5	-11.4	-13.9	i
CC(C)(C)OC(=O)NCCCCCC(=O)N/N=C/c1coc2ccccc2c1=O	-3.2	-3.1	-3.9	-9.3	-2.5	0.3	/	i
Cc1nn(Cc2ccccc2Cl)c(C)c1NC(=O)Cn1nc([N+](=O)[O-])c(Cl)c1C	-8.5	5.8	/	-2.8	1.1	-5.3	-8.7	i
c1csc(-c2csc3nc(CN4CCOCC4)nc(NCc4ccc5c(c4)OCO5)c23)c1	37.9	-9.1	-6.1	-11.8	-14.6	-2.6	/	i

Later entries:
SMILES	CSC inhib	eIF4H inh	Env fusion inh	MT1-MMP act inh	MT1-MMP act inh RFP	PABP polyA inh	UUG fidelity	Rce1 inh	others
CCCCN(C(=O)c1ccc2c(c1)OCCO2)c1c(N)n(CCCC)c(=O)[nH]c1=O	-7.3	/	-34.8	2.4	6.6	/	-14.5	i
O=C1C=C(c2ccc3[nH]ccc3c2)C[C@@H](c2ccc(F)cc2)C1	7.2	/	-65.5	2.3	0.4	/	-11.3	/
CC(C)C(NC(=O)c1ccccc1F)C(=O)NCCc1ccccn1 (centres undefined)	-2.3	-2.1	14.0	0.6	4.2	-0.6	-4.9	i
O=C(NCCc1ccccc1)C1=CCN(S(=O)(=O)c2ccccc2)CC1	-11.5	/	-14.8	-2.3	-0.2	/	-15.5	i
CCOC(=O)c1ccccc1OC(=O)CS(=O)c1ccccc1[N+](=O)[O-] (centres undefined)	-11.2	5.0	12.9	-2.9	2.2	2.2	/	i
Cn1c(=O)c2c(ncn2CC(=O)Nc2cccc(S(=O)(=O)Nc3ccccc3F)c2)n(C)c1=O	-14.9	-13.5	-3.0	2.2	-5.7	5.0	-13.5	i
O=C(NCCCn1ccnc1)/C(=C\c1ccc(Br)cc1)NC(=O)c1ccccc1	-0.9	-1.6	10.6	-0.7	-2.9	7.1	-1.5	i
C=CCC[C@H](Cc1ccc(F)cc1)C(=O)OC[C@H](C)NC(=O)[C@@H](CC=C)CC(=O)N[C@H](CO)Cc1ccccc1	9.7	/	12.8	14.9	-10.5	/	-4.8	/
CCn1c(=O)c2sccc2n2c(CCCC(=O)NC3CCN(Cc4ccccc4)CC3)nnc12	-2.1	-2.9	4.0	3.1	2.7	3.3	-15.5	i
O=C(O)c1ccc(NC(=O)c2cn(-c3ccccc3)nc2-c2ccccc2)cc1	-13.7	5.9	-45.6	7.1	1.1	-5.9	/	i
CSc1ccc(CCNC(=O)c2ccc(CS(=O)Cc3ccc(Cl)cc3)o2)cc1 (centres undefined)	6.4	0.1	7.4	2.7	-7.3	1.9	-10.3	i
COC(CNC(=O)c1cc(-c2ccncc2)nc2ccc(S(=O)(=O)N3CCOCC3)cc12)OC	-4.3	2.1	-12.5	1.2	6.8	-10.4	/	i
COc1ccc(NC(=O)Nc2nc3ccccc3s2)cc1	23.1	-2.2	-104.9	-1.4	-5.2	0.3	/	i
CC1=C(C(=O)N(C)C)CC(CC(=O)NCCc2ccccn2)C(=O)N1Cc1ccccc1 (centres undefined)	/	/	-21.5	3.2	3.3	/	-9.2	/
COc1ccc(/C=N/NC(=O)c2c(C)nnn2-c2nonc2N)cc1OC	-7.8	21.1	1.7	0.6	2.4	-2.6	/	i
O=C(COC(=O)C1CC1)Nc1ccc(S(=O)(=O)N2CCOCC2)cc1	-10.8	/	7.1	-1.4	-1.5	/	-8.8	/
Fc1ccc(Br)cc1C1C=C(c2ccc(Br)s2)Nc2ncnn21 (centres undefined)	18.4	1.9	/	-177.2	-10.8	-4.3	-1.2	i
CC(C)Cn1nc(NC(=O)c2ccco2)c2cc3ccccc3nc21	-7.1	-7.4	-17.9	2.6	0.5	3.7	/	i
O=C(Nc1ccc2c(c1)OCO2)c1cnc(Cl)c(Cl)c1	/	/	-48.0	0.8	2.0	/	-6.3	/
CN1CCc2nc(SCCOc3ccccc3)c(C#N)cc2C1	/	-10.2	/	-4.9	2.1	8.4	-16.0	i
CS(=O)(=O)NCC(c1cccnc1)N1CCN(c2ccccc2F)CC1 (centres undefined)	3.9	0.2	0.5	1.4	0.1	-3.8	/	i
CCCc1cc(=O)oc2cc(OCC(=O)Nc3cc(C)on3)ccc12	2.9	0.5	/	9.6	-2.6	3.6	-13.8	i
Cc1c(Cl)cccc1NC(=O)CC(Cc1ccccc1)C(=O)O (centres undefined)	-11.3	5.1	-14.1	6.4	9.1	4.4	-0.5	i
Cc1ccc(NC(=O)O/N=C/c2c(C)nn(C(C)(C)C)c2C)cc1Cl	1.4	-10.1	12.7	2.5	0.9	-10.0	-67.0	i
N#CC(C#N)=C(Nc1ccc(F)cc1)SCc1cccc(F)c1	58.0	-7.3	61.1*	-19.9	-35.1	-4.7	/	i
O=c1[nH]nc(Sc2ncnc3sccc23)n1CCc1ccccc1	5.5	-12.3	64.3*	-5.1	-15.2	-2.1	-7.5	i
COc1ccc2nc(NC(=O)CSc3n[nH]c(N)n3)sc2c1	0.9	/	-21.6	0.0	-17.6	/	/	i
CC(C)C(=O)Nc1nnc(SCC(=O)NCC2CCCO2)s1 (centres undefined)	-11.5	4.7	1.6	-2.0	-0.2	-2.6	/	i
CCN(CC(=O)NCc1cccs1)C(=O)CCC(=O)c1ccc(F)cc1	2.2	/	13.2	0.3	1.3	/	/	i
Cc1ccccc1N1CCN(S(=O)(=O)c2nnc(NC(=O)CC(C)C)s2)CC1	6.0	-14.4	-45.6	-10.2	-4.7	-18.7	-13.3	i
COC(=O)c1ccc(CNC(=O)COC(=O)C23CC4CC(CC(C4)C2)C3)cc1	-3.3	2.5	0.9	0.1	1.6	-9.0	-3.7	i
COCC(=O)Nc1ccc(S(=O)(=O)Nc2nccs2)cc1	-9.2	12.2	15.5	0.8	-2.1	-9.6	-28.4	i
CC1CCN(Cc2cc(=O)oc3ccc4ccccc4c23)CC1	-5.8	-6.9	20.1	-2.5	-2.0	-1.1	/	i
O=C(O)CC(c1ccccc1)N1C(=O)c2cccc([N+](=O)[O-])c2C1=O (centres undefined)	-34.6	12.2	11.5	-4.8	3.9	3.5	-0.1	i
O=C(O)/C=C/c1ccc(S(=O)(=O)NCc2cccnc2)cc1	-6.8	-4.3	-10.0	-7.4	1.8	-2.2	-1.0	i
O=C(NCCc1ccc(Cl)cc1)C1CC(=O)N(C2CCCC2)C1 (centres undefined)	-10.9	3.8	7.9	2.9	2.8	3.5	-9.2	i
CCc1cc2ccccc2nc1SCC(=O)N1CCN(C(=O)c2ccco2)CC1	/	-6.9	/	-0.4	-1.3	-7.2	-7.5	i
